High-throughput results as filed in PubChem BioAssay.
FGF22 binding: binders of human FGF22 protein, primary screen, FGF22 synaptogenesis inhibitor project, biophysical, thermal shift, single point | AID 651658, 2012 | calls only at 9.99 µM | recombinant FGF22 thermal shift, SYPRO orange fluorescence; percent of sucrose octasulfate shift, DMSO zero | Fibroblast growth factor 22 (Homo sapiens), Q9HCT0 | 1.5% of 340,000 active;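 active = melting point raised past a set limit in the mean and every replicate; three in four hits are not shown here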
Target sequence (Q9HCT0 whole entry, looked up): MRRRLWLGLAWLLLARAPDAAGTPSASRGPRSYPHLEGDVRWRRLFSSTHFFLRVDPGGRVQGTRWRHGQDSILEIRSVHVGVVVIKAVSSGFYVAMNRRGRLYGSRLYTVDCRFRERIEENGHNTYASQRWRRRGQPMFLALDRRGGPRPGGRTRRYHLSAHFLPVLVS
Vif TR-FRET: inhibitors of Vif binding to APOBEC3G peptide, primary screen, biochemical, TR-FRET, GST-Vif 1-94, biotin-A3G peptide, dose response retest (AID 1117319). Virion infectivity factor (Human immunodeficiency virus type 1 group M subtype B (isolate …. TR-FRET GST-Vif / biotin-A3G peptide binding; higher % means a stronger effect; test concentration not given here; strong numbers were not always called active. one-dose inhibition, %; IC50 in µM for titrated hits. 0.57% of 260,000 active;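 active = above the screen mean plus three standard deviations and confirmed in dose response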;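 note: Vif residues 1-94 fused to GST binding biotinylated APOBEC3G peptide 110-148; 0% = full assay without inhibitor and 100% = GST in place of GST-Vif; retest series ran down from 100 µM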
ALR H2O2 inh: inhibitors of human ALR sulfhydryl oxidase, primary screen, biochemical, H2O2 detection, HRP-luminol luminescence, single point. purified ALR, DTT oxidation. inhibition, % (test concentration not listed). 3.8% of 290,000 active. AID 485317, 2010;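 active = mean and each replicate at 75% or more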;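 note: stock transfer was 7.5 nL into about 7.5 µL; 0% = neutral wells and 100% = wells with inactivated enzyme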
Target sequence (P55789 whole entry, looked up): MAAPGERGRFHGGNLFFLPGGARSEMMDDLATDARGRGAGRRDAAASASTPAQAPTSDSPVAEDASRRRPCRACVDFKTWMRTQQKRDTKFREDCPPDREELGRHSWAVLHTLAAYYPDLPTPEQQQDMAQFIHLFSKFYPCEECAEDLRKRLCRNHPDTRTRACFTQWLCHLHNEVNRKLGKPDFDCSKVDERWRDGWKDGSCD
rRNA inh HTS: reduced GFP signal of wild-type E. coli, primary screen, bacterial rRNA inhibitor project, GFP/RFP fluorescence, OD600, single point | 1.6% of 350,000 active | E. coli WT GFP vs humanized-ribosome RFP mutants, 24 h; hits give low values; DMSO median 0, no signal -100 | GFP signal change (wild-type ribosome), % (no concentration beside the values);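 active = significant combined selectivity score with lowered wild-type GFP, culture density cut under 30%, mutant RFP and density less affected; inactive = any of these conditions unmet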; note: one replicate is shown; some compounds called inactive have numbers as strong as hits
E coli growth: E. coli growth inhibition, primary screen, OD600. Escherichia coli growth, 23 h; hits give low values. OD600 absorbance (no concentration beside the values). 0.21% of 330,000 active;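 active = OD600 absorbance below the run mean of sample wells minus 3.6 SD, in any replicate, cut at about 0.56 in these data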;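 note: stock transfer was 300 nL into about 60 µL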
AF4-AF9 inh: inhibitors of AF4 peptide binding to AF9, primary screen, biochemical, AlphaScreen, biotin-AF4 peptide, FLAG-AF9, single point | inhibition, % at 10 µM | Protein AF-9 (Homo sapiens), P42568 | 0.47% of 350,000 active | AID 651704, 2012;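 active = every replicate reaching a set inhibition limit, whatever the replicate mean, cut at about 25% in these data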;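 note: 0% = plate neutral control median and 100% = total signal loss; the record names both 10 and 1 µM as test concentration; the first replicate is given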
Target sequence (P42568 whole entry, looked up): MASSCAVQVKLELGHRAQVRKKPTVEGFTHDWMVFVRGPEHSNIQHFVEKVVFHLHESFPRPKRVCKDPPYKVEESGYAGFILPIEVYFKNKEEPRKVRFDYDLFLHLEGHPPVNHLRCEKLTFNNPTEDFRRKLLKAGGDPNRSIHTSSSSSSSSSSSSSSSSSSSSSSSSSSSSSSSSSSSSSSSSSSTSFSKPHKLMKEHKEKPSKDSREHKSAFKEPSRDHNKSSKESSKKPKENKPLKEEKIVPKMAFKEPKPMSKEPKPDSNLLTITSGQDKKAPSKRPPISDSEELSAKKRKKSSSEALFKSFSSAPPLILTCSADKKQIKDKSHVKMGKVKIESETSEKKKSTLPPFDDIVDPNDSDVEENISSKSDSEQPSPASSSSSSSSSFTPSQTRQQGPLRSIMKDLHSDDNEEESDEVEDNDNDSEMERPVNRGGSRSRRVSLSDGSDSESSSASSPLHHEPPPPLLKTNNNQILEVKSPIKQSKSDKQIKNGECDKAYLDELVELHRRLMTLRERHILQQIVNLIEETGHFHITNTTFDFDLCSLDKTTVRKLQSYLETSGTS
HNF4A DNA FP: change in binding of human HNF4A to DNA, primary screen, biochemical, fluorescence polarization, FITC-DNA; activity change, % at 10 µM; 1 h; AID 1224865, 2016; 0.3% of 360,000 active; in the data active = activity change above about 30%, passing the limit was not always enough;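 note: controls were the assay level and a saturating level of protein; the project sought stronger binding though the title names inhibitors; some compounds called inactive have numbers as strong as hits; positive values seem to mean higher polarization but the record does not say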
rRNA inh HTS OD600: second read-out of rRNA inh HTS, no call of its own (marks repeat the call); OD600 change, %; measured here: OD600 growth;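 optical density of the mix in the first replicate; 0 = DMSO median and -100 = no signal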
rRNA inh HTS RFP: also measured in rRNA inh HTS; calls as there; RFP signal change, %; measured here: RFP humanized mutant strains;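 first replicate; 0 = DMSO median and -100 = no signal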
* = called active by the depositor; i = inactive; x = no result given; & = joins results of further samples. An excerpt. The share of hits here may be higher or lower than overall.

SMILES	FGF22 binding	Vif TR-FRET	ALR H2O2 inh	rRNA inh HTS	rRNA inh HTS OD600	rRNA inh HTS RFP	E coli growth	AF4-AF9 inh	HNF4A DNA FP
CCOC(=O)C1(C)CCN1C(=O)c1ccc(C)cc1 (centres undefined)	i	x	x	-3.1	-15.6	-2.9	x	0.1	-2.3
Cc1c(C(=O)Nc2cccc(-c3nnc4n3CCCCC4)c2)oc2ccccc12	x	x	69.4	x	x	x	0.679	x	0.9
Cc1nn(CCOc2ccc(Br)cc2)c(C)c1[N+](=O)[O-]	i	-4.4%	4.5	-1.5	-3.0	-13.2	0.677	0.4	0.6
COc1cccc(CNc2nc3ccc(NC(C)=O)cc3s2)c1	i	-3.3%	x	-6.9	-13.1	-3.6	x	0.2	0.4
O=C(C[C@H]1CC[C@H](NS(=O)(=O)c2ccccc2)[C@H](CO)O1)NCc1ccccc1F	i	x	x	2.4	-0.2	-0.1	x	-1.7	x
CC(NS(=O)(=O)c1ccc2c(c1)c(=O)n(C)c(=O)n2C)C(=O)NC1CCCCC1 (centres undefined)	i	x	-6.5	1.6	2.4	-1.7	0.62	-1.8	-3.1
CCN(C[C@H]1N[C@@](C)(C(=O)OC)[C@H]2C(=O)N(C)C(=O)[C@@H]12)C(=O)Nc1ccc(C)cc1	i	-8.6%	x	8.5	8.1	-1.7	0.7	-1.4	0.5
Cc1ccc([N+](=O)[O-])cc1NC(=O)c1ccc(-c2ccccc2)cc1	x	11.3%	-7.0	x	x	x	0.698	x	-3.9
COC(=O)[C@H]1[C@H](CO)[C@H]2Cn3c(ccc(-c4cccc(F)c4)c3=O)[C@H]2N1S(C)(=O)=O	i	x	x	2.7	5.7	-1.4	x	0.3	x
COc1ccc(NC(=O)c2cncc(Br)c2)cc1S(=O)(=O)N1CCCCC1	x	32.1%	-14.2	x	x	x	0.725	x	1.4
COc1ccc(S(=O)(=O)N2CCN(C)CC2)cc1NC(=O)c1ccccc1C	i	x	2.7	2.4	10.0	-3.5	0.654	1.5	-1.5
Cc1ccc(S(=O)(=O)N(C)C[C@H]2OCCCC[C@H](C)Oc3ccc(NC(=O)Nc4ccc(C(F)(F)F)cc4)cc3C(=O)N([C@@H](C)CO)C[C@@H]2C)cc1	i	x	x	4.7	3.9	-0.3	x	1.0	x
O=C(NCc1cccnc1)c1cccn2c(=O)c3sccc3nc12	x	6.0%	-1.9	x	x	x	0.677	x	-1.6
Cc1csc(=O)n1CC(=O)OCC(=O)NNC(=O)c1ccc(Cl)cc1	i	-7.4%	-1.2	21.8	18.5	1.7	0.714	-1.3	-3.4
CCCC#Cc1cnc2c(c1)C(=O)N([C@@H](C)CO)C[C@@H](C)[C@@H](CN(C)Cc1ccncc1)O2	i	x	x	5.2	3.0	2.1	x	1.2	x
C[C@@H]1CN([C@H](C)CO)S(=O)(=O)c2ccc(-c3ccc(C(=O)N(C)C)cc3)cc2O[C@H]1CN(C)C(=O)Nc1ccccc1F	i	x	x	-1.9	8.8	-1.0	x	0.1	x
Cc1cccc(-c2nc3c(c(SCC(=O)N4CCOCC4)n2)Cc2c(CO)cnc(C)c2O3)c1	x	x	-1.5	x	x	x	0.664	x	3.8
Cn1c(=O)c2c(nc(CN3CCN(c4ccccc4F)CC3)n2CCN2CCOCC2)n(C)c1=O	x	7.0%&-8.3%	-6.2	1.4	2.1	-2.1	0.744	x	-1.3
O=C(Nc1ccccc1)Nc1ccc(Br)cc1F	i	x	-7.9	x	x	x	0.678	-6.8	1.2
CCOc1c(Br)cc(C(=O)NCCCn2ccnc2)cc1OC	i	-9.1%	-1.4	2.1	0.9	-2.5	0.695	5.2	3.9
CN(C)C(=O)C[C@@H]1C=C[C@H](NC(=O)c2ccc(F)cc2)[C@H](CO)O1	i	x	x	1.7	-1.5	-2.4	x	-0.2	x
CC(NCC(=O)Nc1cc(S(=O)(=O)N2CCCCCC2)ccc1Cl)c1ccccc1 (centres undefined)	i	13.9%	-10.4	-23.4*	-17.2*	-0.4*	0.731	-1.0	-1.5
Cn1c(C(=O)NCCc2ccccc2)cc(=O)n(C)c1=O	i	x	-28.7	2.1	0.7	0.8	0.707	-0.1	0.8
COc1ccc(NC(=O)C2CCCN(S(C)(=O)=O)C2)cc1 (centres undefined)	i	-3.8%	x	7.5	9.9	0.7	0.688	-8.6	-0.5
COC(=O)c1cc2c(c3c4ccccc4n(S(=O)(=O)c4ccc(OC)cc4)c13)C(=O)N(Cc1ccco1)C2	i	x	x	-2.8	-3.1	6.6	x	-2.1	x
CC(C)CC(NC(N)=O)C(=O)OCC(=O)N(Cc1ccccc1)Cc1ccccc1 (centres undefined)	i	x	-88.1	9.8	3.6	-3.1	0.714	-1.7	-3.5
CCOc1cccc(N(C(=O)Cc2cccs2)C(C(=O)NC2CCCCC2)c2cccn2C)c1 (centres undefined)	x	5.6%	1.0	x	x	x	0.736	x	-3.3
Cc1ccc(S(=O)(=O)N/N=C2\C(=O)C3(C)CCC2C3(C)C)cc1 (centres undefined)	x	19.3%	-8.1	14.9	7.2	0.7	x	-0.8	2.8
COc1ccc2c(C)c(CCC(=O)NC3CC3)c(=O)oc2c1	i	x	x	x	x	x	0.685	-2.3	-0.8
Cc1cc(N2CCN(C(C(=O)NC3CCCC3)c3ccco3)CC2)c2ccccc2n1 (centres undefined)	i	x	x	1.5	-4.8	1.8	x	x	-0.8
COC(=O)CC1C(=O)NCCN1C(=O)OC(C)(C)C (centres undefined)	i	x	-3.4	8.3	6.0	2.9	0.674	-0.1	2.3
O=C(COC(=O)CC1CCCCC1)Nc1c(Cl)cccc1Cl	i	3.0%	x	1.2	4.4	4.2	0.649	-0.6	5.5
COc1ccc2c(c1)OC[C@H]1[C@@H]2N2C(=O)[C@@H](C)NC(=O)[C@@]2(C)[C@H]1c1ccccc1	i	x	0.4	4.0	-2.4	-2.0	x	-0.7	1.2
CC(C)(C)c1cc(C(=O)NNC(=O)c2ccc(Cl)cc2)no1	i	3.4%	6.3	4.4	0.8	-0.7	0.657	3.5	-2.6
O=C(c1ccco1)N1CCN(c2cc(=O)n(C3CCCCC3)c(=O)[nH]2)CC1	x	-5.3%	-9.0	x	x	x	0.705	x	-0.6
Cc1cc(C)n(C(=O)COc2c(C)cccc2C)n1	x	-4.8%	-19.8	x	x	x	0.68	x	2.5

5 entries from above, ordered by the number in ALR H2O2 inh, rising:
mol,Vif TR-FRET,ALR H2O2 inh,rRNA inh HTS,rRNA inh HTS OD600,rRNA inh HTS RFP,AF4-AF9 inh,HNF4A DNA FP
CC(NCC(=O)Nc1cc(S(=O)(=O)N2CCCCCC2)ccc1Cl)c1ccccc1 (centres undefined),13.9%,-10.4,-23.4*,-17.2*,-0.4*,-1.0,-1.5
O=C(c1ccco1)N1CCN(c2cc(=O)n(C3CCCCC3)c(=O)[nH]2)CC1,-5.3%,-9.0,x,x,x,x,-0.6
Cc1cccc(-c2nc3c(c(SCC(=O)N4CCOCC4)n2)Cc2c(CO)cnc(C)c2O3)c1,x,-1.5,x,x,x,x,3.8
Cc1csc(=O)n1CC(=O)OCC(=O)NNC(=O)c1ccc(Cl)cc1,-7.4%,-1.2,21.8,18.5,1.7,-1.3,-3.4
CC(C)(C)c1cc(C(=O)NNC(=O)c2ccc(Cl)cc2)no1,3.4%,6.3,4.4,0.8,-0.7,3.5,-2.6

In another format: results already given
> Cc1cc(C)n(C(=O)COc2c(C)cccc2C)n1
  FGF22 binding: x | Vif TR-FRET: -4.8% | ALR H2O2 inh: -19.8 | rRNA inh HTS: x | rRNA inh HTS OD600: x | rRNA inh HTS RFP: x | E coli growth: 0.68 | AF4-AF9 inh: x | HNF4A DNA FP: 2.5
> COC(=O)c1cc2c(c3c4ccccc4n(S(=O)(=O)c4ccc(OC)cc4)c13)C(=O)N(Cc1ccco1)C2
  FGF22 binding: i | Vif TR-FRET: x | ALR H2O2 inh: x | rRNA inh HTS: -2.8 | rRNA inh HTS OD600: -3.1 | rRNA inh HTS RFP: 6.6 | E coli growth: x | AF4-AF9 inh: -2.1 | HNF4A DNA FP: x
> Cc1ccc(S(=O)(=O)N/N=C2\C(=O)C3(C)CCC2C3(C)C)cc1 (centres undefined)
  FGF22 binding: x | Vif TR-FRET: 19.3% | ALR H2O2 inh: -8.1 | rRNA inh HTS: 14.9 | rRNA inh HTS OD600: 7.2 | rRNA inh HTS RFP: 0.7 | E coli growth: x | AF4-AF9 inh: -0.8 | HNF4A DNA FP: 2.8
> O=C(COC(=O)CC1CCCCC1)Nc1c(Cl)cccc1Cl
  FGF22 binding: i | Vif TR-FRET: 3.0% | ALR H2O2 inh: x | rRNA inh HTS: 1.2 | rRNA inh HTS OD600: 4.4 | rRNA inh HTS RFP: 4.2 | E coli growth: 0.649 | AF4-AF9 inh: -0.6 | HNF4A DNA FP: 5.5

(listing goes on)
SMILES	FGF22 binding	Vif TR-FRET	ALR H2O2 inh	rRNA inh HTS	rRNA inh HTS OD600	rRNA inh HTS RFP	E coli growth	AF4-AF9 inh	HNF4A DNA FP
Cc1ccc(COc2ccc(S(=O)(=O)N3CCCC3)cc2C(N)=O)cc1	i	x	-0.2	-1.9	1.0	-1.4	0.625	-4.7	-0.4
Cc1ccccc1NC(=S)NCCc1ccccn1	x	-2.6%	x	x	x	x	0.636	x	1.0
CC(=O)Nc1ccc(OS(=O)(=O)c2ccccc2C)cc1	i	16.8%	x	-10.3	-13.5	-9.7	0.665	-0.4	-2.4
Cc1csc(Nc2nc(N)c(C(=O)Nc3ccccc3)o2)n1	i	-8.6%	24.6	-11.6	6.9	-3.5	0.688	-0.9	-0.1
CC1CCN(S(=O)(=O)N2CCC(C(=O)NC(C)c3ccccc3)CC2)CC1 (centres undefined)	i	4.3%	x	1.5	11.4	-2.1	x	-0.3	-2.9
C[C@H](CO)N1C[C@H](C)[C@@H](CN(C)S(=O)(=O)c2cccs2)Oc2c(NC(=O)C3CCOCC3)cccc2C1=O	i	x	x	2.9	4.3	-2.0	x	-2.4	x
O=C(Nc1nc(-c2ccccn2)cs1)c1cc(Cl)ccc1[N+](=O)[O-]	i	0.5%	34.8	-50.0	-57.2	-22.5	0.708	5.8	-4.7
CC1(C)OC(C)(C)/C(=C/Nc2ccccc2)C1=O	x	-10.0%	-7.8	x	x	x	0.688	x	-1.7
N#CCC(=O)Nc1ccc(C(=O)OCc2ccccc2Oc2ccccc2)cc1	i	x	1.2	-42.2	-69.7	3.1	0.693	-0.6	3.6
CC(C)NC(=O)N1[C@@H]2CN(C(=O)Nc3cccc(Cl)c3)c3ccccc3[C@@H]2[C@@H]1CO	i	x	x	-44.0	-52.7	-11.2	x	1.3	x
O=C(Cc1ccc(Br)cc1)Nc1ncc([N+](=O)[O-])s1	i	17.0%	-7.0	x	x	x	0.603	-1.0	-5.5
CCOC(=O)CNC(=O)CSc1nnc(-c2ccccc2)n1Cc1ccco1	x	1.7%	22.8	x	x	x	0.801	x	-0.5
COc1cc(OC)cc(C(=O)NC(=S)Nc2cccnc2)c1	x	-1.2%	4.8	x	x	x	0.81	x	-2.2
